RE007 growth inh = less growth of the S. pombe RE007 Vpr strain. S. pombe RE007 Vpr strain, BacTiter-Glo ATP luminescence, 24 h; control for the full effect not named in the record. Potency, µM (titrated, usually from 92.2 µM), inactives show at the highest dose activity change, negative = less growth. 360,000 tested, 0.21% active. AID 651644; active = well fitted falling curve with a large enough effect; inconclusive = small, poorly fitted or top-dose-only effect; inactive = no such curve, though single readings can be large or run the other way;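 also: % is scaled to controls: 0 for no effect and ±100 for the full control effect; nearly all actives have a fitted effect of over 50% in size; the assay follows cell death caused by Vpr and the record does not say whether a fall means rescue or toxicity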
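Fission yeast strain RE007, carrying one chromosomally integrated HIV-1 vpr copy, was seeded at OD 0.01 in PMG+AL medium with 23 nL pinned compound. After 24 h at 30 °C and 99% humidity, viability was read by BacTiter-Glo luminescence.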
MARV entry inh = Marburg virus entry inhibition; Marburg virus pseudotyped entry inhibition, cell reporter; control for the full effect not named in the record; about a third of the inactives were read at about 46 µM; Potency, µM (series often up to 37.8 µM), for the others: at the top dose activity change, negative = inhibition, hits mostly inhibitors; 300,000 tested, 1.8% active; AID 540276; active = well fitted inhibition curve with a large enough effect; inconclusive = small, poorly fitted or top-dose-only effect, or effect the other way; inactive = flat fitted curve, though single readings scatter; tested in HEK293 cells; about a fifth of its hits are not listed in these tables; also: % is scaled to controls: 0 for no effect and ±100 for the full control effect; luciferase read-out
Cruzain Triton = inhibitors of Trypanosoma cruzi cruzain with detergent; P25779; purified cruzain, Z-FR-AMC fluorescence, 0.01% Triton; Potency, µM, for inactives: max response, negative = inhibition, usual class: inhibitors; 200,000 tested, 0.43% active;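 also: plate controls were neutral wells for no effect and buffer without enzyme for full effect; nearly all actives have a fitted effect of over 40% in size; top concentration of the series not given in the record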
Target sequence (P25779 123-467 limits assumed): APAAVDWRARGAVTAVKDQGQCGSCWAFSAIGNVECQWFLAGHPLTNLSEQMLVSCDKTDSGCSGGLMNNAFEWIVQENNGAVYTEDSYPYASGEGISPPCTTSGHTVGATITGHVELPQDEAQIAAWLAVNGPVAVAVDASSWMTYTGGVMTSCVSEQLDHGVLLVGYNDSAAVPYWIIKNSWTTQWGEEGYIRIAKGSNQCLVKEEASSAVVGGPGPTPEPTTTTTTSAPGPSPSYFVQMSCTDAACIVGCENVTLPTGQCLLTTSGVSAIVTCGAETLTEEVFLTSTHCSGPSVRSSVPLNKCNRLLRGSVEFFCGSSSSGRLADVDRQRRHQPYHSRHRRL
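Compounds were screened in titration against cruzain (1.5 nM) with 0.01% Triton X-100 to counter colloidal aggregation. Activity was the AMC fluorescence increase over 60 s after adding 2 uM Z-FR-AMC at pH 5.5.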
StopGo reporter = lowers the luciferase signal of an FMDV 2A StopGo reporter; human cells with a luciferase reporter of 2A StopGo recoding; control for the full effect not named in the record; Potency, µM (top dose mostly 57.9 µM), for the others: at the top dose signal change, negative = less light; 410,000 tested, 1.2% active; AID 1159524; active = well fitted falling curve with a large enough effect; inconclusive = small, poorly fitted or top-dose-only effect; inactive = no such curve, though single readings can be large or run the other way; tested in HEK293T cells; also: % is scaled to controls: 0 for no effect and ±100 for the full control effect; nearly all actives have a fitted effect of over 45% in size; luciferase light after 4 h
NS1 function inh = inhibitors of influenza NS1 protein function; S. cerevisiae slowed by influenza A NS1, growth recovery by OD600; Potency, µM (titrated, usually from 46.1 µM), for inactives: at the top dose activity, positive = more growth; 270,000 tested, 0.4% active; AID 2326; active means well fitted rising curve with a large enough effect; inconclusive means small, poorly fitted or top-dose-only effect; inactive means no such curve, though single readings can be large or run the other way; also: nearly all actives have a fitted effect of over 50% in size
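Growth recovery, yeast-based: influenza A NS1 expressed in S. cerevisiae causes slow growth, and suppressors are detected by OD600. The parent strain without NS1 is used as positive control.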
Cruzain inh noDet = blocks cruzain activity in detergent-free assay; P25779; purified cruzain, Z-FR-AMC fluorescence, no detergent; Potency, µM, without a hit: max response, negative = inhibition, usual class: inhibitors; 200,000 tested, 2.3% active; AID 1476;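 also: plate controls were enzyme without inhibitor for no effect and buffer without enzyme for full effect; nearly all actives have a fitted effect of over 40% in size; top concentration of the series not given in the record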
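Detergent-free condition (0.00005% Triton X-100) in acetate buffer pH 5.5 with DTT. 1.5 nM enzyme and compound were pre-mixed 15 min, then 2 uM Z-FR-AMC substrate added; reaction progress from fluorescence change between first and third reads (60 s).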
Lassa entry inh = inhibitors of Lassa virus binding or cell entry; Potency, µM (top dose mostly 37.9 µM), inactives show top-dose activity change, negative = inhibition, actives largely listed as inhibitors; Lassa virus pseudotype entry inhibition, cell reporter; control for the full effect not named in the record; 300,000 tested, 1.2% active; AID 540256; active means well fitted inhibition curve with a large enough effect; inconclusive means small, poorly fitted or top-dose-only effect, or effect the other way; inactive means flat fitted curve, though single readings scatter; tested in HEK293 cells; also: % is scaled to controls: 0 for no effect and ±100 for the full control effect; nearly all actives have a fitted effect of over 50% in size; luciferase read-out
SARS PLpro yeast = inhibitors of SARS-CoV papain-like protease in yeast | S. cerevisiae expressing SARS-CoV PLpro, growth rescue; control for the full effect not named in the record | Potency, µM (series often up to 32.9 µM), for the others: top-dose activity, positive = growth rescue | 330,000 tested, 0.19% active | AID 485353; active means well fitted rising curve with a large enough effect; inconclusive means small, poorly fitted or top-dose-only effect; inactive means no such curve, though single readings can be large or run the other way; also: 0% is about no effect; nearly all actives have a fitted effect of over 55% in size; growth read by luminescence after 48 h
* hit, by the source's call; ? = inconclusive; · = not tested or not shown; & = joins results of further samples; [ ] = remark or other dose. Unless noted, calls follow the shape of the dose curve; as a rule, active = well fitted curve in the direction sought with a large enough effect; inconclusive = small, poorly fitted or top-dose-only effect, or another doubt; inactive = no such curve, though single readings can be large; an effect the other way counts as inactive or inconclusive. Potency is read from the fitted curve at half-maximal effect.

mol	RE007 growth inh	MARV entry inh	Lassa entry inh	Cruzain inh noDet	Cruzain Triton	NS1 function inh	StopGo reporter	SARS PLpro yeast
CCOC(=O)COc1ccc2nsnc2c1	23%	20%[46.1 µM]	9%	3%	-2.6%	-4%	-15%	-5%
CCCCCCCCCCCC1=C(O)C(=O)C=C(O)C1=O	12%	·	·	3%&-15%&3%	-17%&6.4%&-16%	·	-25%&-16%&-11%	·
O=C(CN1C(=O)c2ccccc2S1(=O)=O)N1CCN(c2ccc(F)cc2)CC1	-9%	-23%[46.1 µM]	15%	3%	-6.3%	0%	11%	13%
O=C(O)COc1ccc(-c2nccc(-c3cccs3)n2)cc1	·	-6%	·	-6%	-8.8%	-112%	·	-4%
CC1CCN(C(=O)Cn2nnc(-c3ccccc3)n2)CC1	-8%	·	·	·	·	-15%	36%[activator]	-4%
O=C(N/N=C\c1cc2c(cc1Cl)OCO2)c1ccc(Br)s1	13%	3%[46.1 µM]	?	·	·	-1%	-22%	5%
CC(C)(C)c1ccc(OCCC(=O)OCC(=O)NC(=O)NC2CCCC2)cc1	2%	-18%[46.1 µM]	-15%	·	·	·	-26%	-30%
Cc1cc(C)n2nc(C(=O)Nc3cccc(S(=O)(=O)N4CCCC4)c3)nc2n1	-8%	·	·	·	·	5%	1%	-5%
O=C(NNC(=S)NC(=O)c1ccccc1)c1ccc([N+](=O)[O-])cc1	-16%	·	·	·	·	-80%	-15%	-3%
CC(=O)c1ccc(NC(=O)C2CCN(S(=O)(=O)c3ccc4c(c3)CCCN4C(=O)C3CCC3)CC2)cc1	·	·	13%[46.1 µM]	0%	0.6%	·	?	·
Cc1cccc(NC(=O)c2ccc(Cl)c(S(=O)(=O)N3CCCCCC3)c2)n1	-26%	22%	0%	·	·	·	?	-8%
COc1ccc(CNC(=O)Cc2c(C)c3c(cc(C)c4c(C)coc43)oc2=O)cc1OC	·	8%[46.1 µM]	8%[46.1 µM]	-1%	-1.0%	·	-11%	·
COC(=O)c1sccc1NC(=O)c1ccc2c(c1)OCO2	-7%	7%	-2%	8%	4.2%	10%	·	1%
CCOC(=O)C(NC(=O)CC(C)C)(Nc1sc(C)c(CC)c1C#N)C(F)(F)F (stereo unspecified)	4%	14%	-7%	-3%	-2.0%	-3%	9%	-4%
O=C(O)C1C2CCC(C2)C1C(=O)NCCc1ccccc1 (stereo unspecified)	3%	·	·	·	·	4%	18%	0%
O=c1c2ccccc2c(-c2ccccc2)nn1-c1cc(Cl)cc(Cl)c1	6%	-6%	·	·	·	-3%	-28%	-1%
C=C1CCN(CC(=O)OC)S(=O)(=O)c2ccccc21	2%	·	·	·	·	6%	-23%	2%
COC(=O)C1=C(C)NC2=C(C(=O)CC(C)(C)C2)C1c1ccccn1 (stereo unspecified)	-10%	-1%	15%	-11%	-0.2%	0%	·	21%
COc1ccc(N2C(=O)CC(Sc3nc4ccccc4s3)C2=O)cc1OC (stereo unspecified)	-25%	·	·	·	·	2%	8%	-6%
O=C(c1ccc(Cl)cc1)N(c1ccccn1)C1CCCCC1	9%	9%[46.1 µM]	-2%	·	·	-9%	-13%	0%
Cc1ccc(-c2noc(CCCOc3ccc(Cl)cc3Cl)n2)cc1	-1%	-1%	-7%	1%	-1.2%	-14%	22%	-6%
CN(C(=O)CC1C(=O)NCCN1CC1CCCCC1)C1CCOCC1 (stereo unspecified)	11%	·	·	·	·	-4%	-12%	-3%
CCCCCCn1c(N2CCC(C)CC2)nc2c1c(=O)[nH]c(=O)n2C	6%	-14%	?	?	-3.0%	-66%	20µM*	-1%
O=C(CC12CC3CC(CC(C3)C1)C2)NC(Cc1ccccc1)C(=O)O (stereo unspecified)	-12%	1%	-6%	·	·	·	-2%	0%
O=C(C1CCN(S(=O)(=O)c2ccc(Br)s2)CC1)N1CCc2ccccc21	-4%	-27%	?	?	2.1%	-74%	-10%	-12%
CC1=C[C@H]2OC(=O)[C@@H](C)[C@H]2C[C@@H]2[C@H]1C[C@@H](O)[C@@]2(C)O	1%	·	·	·	·	5%	-8%	-1%
O=C(CN1C(=O)COc2ccc(S(=O)(=O)N3CCCCCC3)cc21)N1CCN(c2cccc(C(F)(F)F)c2)CC1	·	17%[46.1 µM]	-4%[46.1 µM]	?	-2.3%	·	?	·
COc1ccc(F)c(-c2nc(CN3CCN(C(=O)c4ccco4)CC3)c(C)o2)c1	-18%	-8%	-5%	·	·	7%	-5%	-6%
COc1ccc(C)cc1N(C(=O)CNC(=O)c1ccco1)C(C(=O)NCC1CCCO1)c1ccccc1 (stereo unspecified)	-14%	?	14%[46.1 µM]	·	·	4%	1%	6%
CCOC(=O)N1CCN(CCC(=O)Nc2cc(OC)ccc2OC)CC1	19%	23%[46.1 µM]	15%	·	·	2%	-2%	0%
Cc1ccccc1Cn1cnc2ccccc21	37%	-14%[46.1 µM]	-15%	·	·	2%	?	0%
Cc1ccc(S(=O)(=O)N2CCC(n3c(C)nc4cccnc43)CC2)c(C)c1	·	·	?	?	-1.8%	·	?	·
Cc1ccc(S(=O)(=O)c2nc(-c3ccco3)oc2SCc2ccccc2Cl)cc1	·	-29%[46.1 µM]	-26%[46.1 µM]	?	-7.1%	·	21%	·
C/C(=C\C(=O)c1c(O)cc(C)oc1=O)N(C)C	11%	16%[46.1 µM]	17%	·	·	·	2%	0%
CC(C)CCc1noc(CN2CCN(CC(=O)NC(C)C)CC2)n1	2%	-27%[46.1 µM]	-8%	·	·	1%	?	-1%
O=C(O)Cn1cc(C(=O)c2ccccc2)c2ccccc21	-18%	-1%	-25%[14.3 µM]	-4%	-5.7%	2%	-20%	0%
Cc1ccc(N(C(=O)c2csnn2)C(C(=O)NC2CCCC2)c2ccncc2)c(C)c1 (stereo unspecified)	-2%	2%[46.1 µM]	2%[46.1 µM]	·	·	-1%	-10%	1%
COCc1cc(=O)[nH]c(-c2csc(C)n2)n1	-6%	1%	2%	·	·	-2%	-3%	1%
O=C(CSC(=S)N1CCN(c2ccccc2)CC1)Nc1nc(-c2ccccc2)c(-c2ccccc2)o1	4%	8%[46.1 µM]	-1%	?	-1.3%	16%	-2%	1%
COc1ccc(-n2c(C)ccc2-c2ccccc2)cn1	?	-6%[46.1 µM]	-16%[46.1 µM]	·	·	15%	-1%	-4%
NC(=O)c1ccc(Oc2ncc(C(F)(F)F)cc2Cl)cc1	-8%	?	-3%	·	·	·	6%	-1%
Cc1cc(C)nc(Nc2n[nH]c(-c3ccccc3N)n2)n1	8%	?	6.3µM*	·	·	-5%	-5%	-2%
COc1cccc2cc(-c3cc(=O)oc4ccc(O)cc34)oc12	-12%	·	·	·	·	1%	-7%	1%
COc1ccc(NC(=O)/C(C#N)=C/c2cccnc2)c(OC)c1	14%	-12%[46.1 µM]	26%[46.1 µM]	·	·	6%	-17%	-1%
COc1ccc(C(C(=O)NC(C)(C)C)N(C(=O)CCC(=O)Nc2cc(C)on2)c2cccc(F)c2)cc1 (stereo unspecified)	2%	?	16%	·	·	-5%	3%	-1%
CN(C(N)=S)c1ccccc1	18%	16%	18%	-3%	-2.2%	8%	0%	-2%
O=C(Nc1ccc(N2CCOCC2)c(S(=O)(=O)Nc2ccccc2Cl)c1)c1ccc(=O)[nH]n1	-9%	?	-3%	·	·	·	4%	·
Cc1cc(C)n(-c2ccc(C(=O)OCC(=O)Nc3ccc(S(=O)(=O)N4CCOCC4)cc3)cc2)n1	13%	-1%&-1%	-13%	?	-0.8%	-6%	-14%	1%
Cc1cc(Nc2ccc(F)cc2Cl)n2nc(C)nc2n1	7%	·	·	-2%	2.5%	-7%	-23%	-1%
CC(NC(=O)COC(=O)CCc1ccc(S(=O)(=O)N2CCOCC2)cc1)C1CC2CCC1C2 (stereo unspecified)	-5%	0%	-1%	?	-4.1%	-18%	-26%	-9%
Cc1ccnc(NC(=O)C2CCCN(S(=O)(=O)c3cnc[nH]3)C2)c1 (stereo unspecified)	0%	13%	2%	0%	-0.5%	-11%	3%	17%
CCCC1(C2CCCC2)NC(=O)NC1=O (stereo unspecified)	-12%	22%	9%	·	·	·	-13%	·
Cc1ccc(NC(=O)c2nc(S(C)(=O)=O)ncc2N(Cc2ccccc2)Cc2ccco2)c(C)c1	·	5%[46.1 µM]	-18%[46.1 µM]	0%	-4.1%	·	-23%	·
N=c1c(S(=O)(=O)c2ccccc2)cc2c(=O)n3ccccc3nc2n1Cc1cccnc1	-12%	-3%[46.1 µM]	-10%	·	·	·	9%	-2%
COc1cc(C(=O)NC(=S)Nc2ccc3oc(=O)ccc3c2)cc(OC)c1OC	-2%	7%	?	-9%	0.0%	17%	·	2%
CN(C(=S)Oc1ccc(C(=O)Nc2ccccc2)cc1)c1ccccc1	0%	?	?	9%	-8.2%	0%	-11%	0%

(further entries)
mol	RE007 growth inh	MARV entry inh	Lassa entry inh	Cruzain inh noDet	Cruzain Triton	NS1 function inh	StopGo reporter	SARS PLpro yeast
CC(=O)Oc1ccc(C(=O)NCCc2ccccc2)cc1	-10%	?	7.1µM*	·	·	·	-21%	-4%
COc1ccc(-c2nc3c(n2O)CCC/C3=N\O)cc1	-7%	17%	12%	4%	1.2%	7%	0%	-2%
COc1ccc(-n2c(CCc3ccccc3)nnc2SCC(=O)c2ccccc2)cc1	10%	1%	?	-1%	-5.8%	-10%	-17%	13%
CC(=O)NCC(=O)NC(C(=O)Nc1ccc2c(c1)OCCO2)c1ccc(C)cc1 (stereo unspecified)	2%	30%[46.1 µM]	?	-3%	2.1%	-2%	9%	14%
C=CCN1C(=O)c2ccc(C(=O)N3CCN(c4ccccc4OC)CC3)cc2C1=O	22%	6%	-5%	·	·	·	-23%	2%
O=C(CCN1C(=O)/C(=C/c2ccccc2Cl)SC1=S)NC1CCS(=O)(=O)C1 (stereo unspecified)	-2%	·	·	·	·	2%	-3%	15%
O=C(CSCc1ccc(Cl)cc1)Nc1ccccc1C(=O)N1CCOCC1	4%	27%	6%	10%	5.6%	-3%	-4%	2%
Cc1nnc(C)n1/N=C/c1ccc(O)cc1	16%	2%	10%	-1%	-3.1%	-4%	-11%	0%

Screens deposited in PubChem BioAssay by National Center for Advancing Translational Sciences (NCATS).
